# MT1-MMP act inh: blocks activation of human MT1-MMP; HT1080 RFP-PRO-GFP cells, GFP/RFP ratio fluorescence, overnight; percent of plate control window, DMSO zero; GFP/RFP ratio change, % at 20 µM; hit rate 0.061% among 360,000; AID 651647;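 active = GFP/RFP ratio change of at least 30% with cell ATP level not reduced by more than half and red fluorescence within 50% of control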; also: strong numbers were not always called active
#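 Material – HT1080 RFP-PRO-GFP cells · Control set – DMSO wells and RFP-L50D-GFP cells · Incubation – overnight cell settling, then overnight compound exposure, 37 °C, 5% CO2 · Compound dosing – single-point 20 µM compound, 1% DMSO · Read-out – GFP/RFP fluorescence ratio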
# eIF4H inh: inhibitors of RNA binding by human eIF4H. Q15056. eIF4H fluorescence polarization binding assay. inhibition, % at 35 µM. hit rate 0.94% among 290,000. AID 2012;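 active = 50% or more with normal probe brightness, or confirmed in later tests; about a fifth of its hits are not listed in these tables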;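 also: calls also rest on retests at 20 µM and on dose response follow-up; 0% = protein and probe with vehicle and 100% = probe without protein; strong numbers were not always called active; many hits fall short of the cut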
# HIV Env fusion: inhibitors of HIV Env-mediated cell fusion | hit rate 1.1% among 360,000 | HeLa-JRFL Env/CEM21 cell fusion, luciferase | inhibition, % at 12.3 µM;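 active = mean replicate inhibition score of at least 50 and every replicate individually at or above 50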;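 also: 0% = plate neutral controls and 100% = maraviroc near 300 nM; one replicate is shown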
# Yeast UUG start: alters start codon recognition fidelity in yeast; S. cerevisiae UUG-firefly luciferase reporter, luminescence/redox ratio; hit rate 0.13% among 350,000; activity score, % at 18.7 µM; AID 602363;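 active = replicate mean at a twofold rise or more, about +100% in these data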;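 also: firefly luciferase made from a UUG start codon reports start codon fidelity; reporter light over untreated wells divided by growth signal over untreated wells; some hits fall short of that in this replicate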
# Rce1 inh: blocks yeast Ras-converting enzyme; yeast membranes, quenched prenylated peptide cleavage fluorescence; Q03530; hit rate 0.27% among 290,000; calls only; AID 2563;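 active = fall in fluorescence gain of 50% or more versus controls, with final raw signal at or below 3038400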;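 also: plate controls were neutral control wells for no effect and wells lacking membranes for full effect; tested at 10 µM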
# Target sequence (Q03530 whole entry, looked up): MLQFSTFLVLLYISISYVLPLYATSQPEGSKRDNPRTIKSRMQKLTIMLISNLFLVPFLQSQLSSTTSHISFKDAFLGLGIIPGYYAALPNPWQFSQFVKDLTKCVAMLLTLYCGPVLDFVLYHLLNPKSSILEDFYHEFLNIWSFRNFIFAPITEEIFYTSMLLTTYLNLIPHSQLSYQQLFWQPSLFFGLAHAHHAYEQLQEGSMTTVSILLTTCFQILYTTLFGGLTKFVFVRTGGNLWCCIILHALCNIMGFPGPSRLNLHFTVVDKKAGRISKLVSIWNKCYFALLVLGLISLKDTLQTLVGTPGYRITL
# PABP FP inh: blocks human PABP binding to poly(A) RNA | P11940 | fluorescence polarization | inhibition, % at 35 µM | hit rate 1% among 290,000;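 active = 50% or more with normal probe brightness, or confirmed in later tests; about a fifth of its hits are not listed in these tables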;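 also: calls also rest on retests at 20 µM and on dose response follow-up; controls were probe without protein and protein plus probe with vehicle; some compounds called inactive have numbers as strong as hits; many hits fall short of the cut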
# Target sequence (P11940 whole entry, looked up): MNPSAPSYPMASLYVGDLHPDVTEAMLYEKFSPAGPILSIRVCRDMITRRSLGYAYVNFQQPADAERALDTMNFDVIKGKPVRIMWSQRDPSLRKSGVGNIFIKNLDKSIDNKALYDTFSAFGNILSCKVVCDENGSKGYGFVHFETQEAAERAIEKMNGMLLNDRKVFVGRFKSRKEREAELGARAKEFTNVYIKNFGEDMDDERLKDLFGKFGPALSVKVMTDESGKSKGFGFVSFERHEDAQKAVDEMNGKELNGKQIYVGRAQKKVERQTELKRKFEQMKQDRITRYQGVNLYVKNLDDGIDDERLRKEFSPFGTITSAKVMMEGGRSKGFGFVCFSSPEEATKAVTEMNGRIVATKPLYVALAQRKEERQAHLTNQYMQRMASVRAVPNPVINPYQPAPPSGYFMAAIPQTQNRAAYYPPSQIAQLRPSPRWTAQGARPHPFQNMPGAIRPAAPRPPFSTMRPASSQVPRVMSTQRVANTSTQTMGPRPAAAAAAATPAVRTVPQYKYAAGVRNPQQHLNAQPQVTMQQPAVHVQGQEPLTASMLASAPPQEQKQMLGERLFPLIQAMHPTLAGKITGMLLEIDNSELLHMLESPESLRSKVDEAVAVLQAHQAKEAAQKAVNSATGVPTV
# CSC inhib: blocks cancer stem cells; hit rate 1.1% among 300,000; cancer stem cell-like cells viability, luminescence; inhibition, % at 7.5 µM;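 active = mean at 75% or more and at least half the replicates too; tested in HMLE shEcad cells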;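 also: 0% = median of negative and 100% = median of positive control wells; the first replicate is given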
# eIF4H inh retest: recorded beside eIF4H inh, whose call it bears; inhibition, %; compound at 20 µM; confirmation average;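 mean of two retest wells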
# PABP FP inh retest: second read-out of PABP FP inh, no call of its own (marks repeat the call); inhibition, %; compound at 20 µM; confirmation repeats;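 mean of two retest wells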
# MT1-MMP act inh RFP: further read-out of MT1-MMP act inh, marked with its call; RFP signal change, %; measured here: RFP expression control read;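 0 = vehicle wells; hits needed this value within 50% of zero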
# * marks the source's active call; other numbers are inactive results; i = inactive; . = no result given. Not a hit list; any-hit rate near 2.9%.
SMILES,MT1-MMP act inh,MT1-MMP act inh RFP,eIF4H inh,HIV Env fusion,Yeast UUG start,Rce1 inh,PABP FP inh,CSC inhib,others
CC1Cc2cc(S(=O)(=O)NCCC(=O)NCc3ccc(F)cc3)ccc2N1C(=O)C1CC1 (centres undefined),-1,-2,5,5,.,i,-1,-5,
CCOc1ccc(OCC)c(S(=O)(=O)NCc2ccccc2)c1,0,-2,-3,12,-4,i,2,-1,
CCCOC(=O)c1ccc(NC(=O)c2c(Cl)ccc(Cl)c2OC)cc1,-5,-21,2,-15,.,i,-4,12,
Cc1ccc2c(c1)C1CN(C)CCC1N2C(=O)c1ccccc1NS(=O)(=O)c1ccc(F)cc1 (centres undefined),-4,1,12,-18,-3,i,7,.,
CCOC(=O)N1CCN(C(=O)c2cc(S(=O)(=O)N3CCCC3)cn2C)CC1,0,12,-13,-14,-16,i,-6,-1,
CC(C)(C)C(=O)NC1CCN(S(=O)(=O)c2ccccc2F)CC1,3,-7,-1,-10,-12,i,2,-15,
CC(C)CN(CC(C)C)C(=O)C12CCC(C)(C(=O)C1)C2(C)C (centres undefined),5,1,-6,6,-9,i,-8,8,
COc1cc(C(C(=O)NC2CCCC2)N(C(=O)c2ccco2)c2ccccc2C(C)=O)cc(OC)c1OC (centres undefined),-2,-1,-10,-6,-16,i,7,.,
CCOc1ccc(C(O)c2nccn2Cc2ccccc2)cc1 (centres undefined),1,-2,-9,.,.,i,-7,1,
CCc1ccccc1NC(=O)C1NC(=O)CC1c1ccccc1 (centres undefined),2,1,-3,-13,16,i,-5,-13,
CN1CCN(c2oc(-c3ccco3)nc2S(=O)(=O)c2ccccc2)CC1,-12,-4,0,.,-1,i,3,-4,
CCOc1ccc(-c2cccc(NS(=O)(=O)c3cc([N+](=O)[O-])ccc3C)c2)nn1,2,-2,.,.,0,i,.,2,

# A draw from above in order of length of the SMILES, lowest first.
SMILES,MT1-MMP act inh,MT1-MMP act inh RFP,eIF4H inh,HIV Env fusion,Yeast UUG start,Rce1 inh,PABP FP inh,CSC inhib,others
CN1CCN(c2oc(-c3ccco3)nc2S(=O)(=O)c2ccccc2)CC1,-12,-4,0,.,-1,i,3,-4,
CCOc1ccc(-c2cccc(NS(=O)(=O)c3cc([N+](=O)[O-])ccc3C)c2)nn1,2,-2,.,.,0,i,.,2,
Cc1ccc2c(c1)C1CN(C)CCC1N2C(=O)c1ccccc1NS(=O)(=O)c1ccc(F)cc1 (centres undefined),-4,1,12,-18,-3,i,7,.,

# Next part
SMILES,MT1-MMP act inh,MT1-MMP act inh RFP,eIF4H inh,HIV Env fusion,Yeast UUG start,Rce1 inh,PABP FP inh,CSC inhib,others
CC1Cc2ccccc2N1CC(=O)Nc1ccc(Cl)c(S(=O)(=O)N(C)C)c1 (centres undefined),1,-1,2,-10,.,i,1,7,
O=C(C[N+]1(CC#Cc2ccccc2)CCCCC1)c1ccccc1,-4,0,-9,3,-5,i,-9,-3,
Cc1ccc(OCC(=O)Nc2ccc3c(c2)nc(CCN2CCN(C)CC2)n3C)cc1,1,-1,2,3,.,i,-5,9,
COc1ccc(NC(=O)C2CCN(C(=O)NCc3ccccc3)CC2)cc1,-1,3,-7,-26,-15,i,-2,-6,
Cc1cc(C(=O)CN(Cc2ccc(F)cc2)S(=O)(=O)c2ccc3c(c2)OCCO3)c(C)n1C,-3,-8,0,-23,-9,i,-9,-9,
CCOc1ccccc1-c1ccc2nccn2c1,-4,-3,.,-16,-11,.,.,.,
O=c1cc(O)c2sc3nc4c(c(C(F)(F)F)c3c2[nH]1)CCCCC4,-3,-1,7,7,.,i,-9,-8,
O=C(CSc1nnc2c(Cl)cc(C(F)(F)F)cn12)NCc1ccc(F)cc1,8,10,11,-10,.,i,-3,0,
COc1ccc(NC(=O)Nc2cccc([N+](=O)[O-])c2)cc1Cl,3,-17,-4,-2,-17,i,-5,41,
COc1ccc(C(=O)/C=C/c2ccc(O)cc2)c(O)c1CC=C(C)C,1,-2,-11,.,-17,i,-6,-15,
COc1cc(CN2CC(C)OC(C)C2)cc(OC)c1 (centres undefined),3,3,.,-21,.,i,.,-8,
CC1(C)Cc2ccccc2C2=NNC(=O)C2=N1,-5,3,0,26,7,i,3,25,
Cc1cc2c(c(SCC(=O)Nc3ccc(C)c(C)c3)n1)C(=O)OC2,5,-3,8,-22,-4,i,8,.,
O=C(NNC(=O)C12CC3CC(CC(Cl)(C3)C1)C2)c1ccncc1,1,-1,.,-16,-5,i,.,4,
O=C(O)CC1(CC(=O)NCc2ccc(C(F)(F)F)cc2)CCCCC1,1,6,3,4,-6,i,-5,15,
CC1=C/C(=N\N=C2\NC(=O)C(CC(=O)Nc3ccccc3F)S2)CC(C)(C)C1 (centres undefined),3,4,0,0,1,i,-8,19,
CC(C)COC(=O)/C(C#N)=C/c1cn(Cc2ccccc2)c2ccccc12,-10,-8,4,4,-14,i,7,7,
CN(C)c1ccnc(N(Cc2ccccc2)Cc2ccccc2)c1C#N,-4,-5,-10,.,-2,i,23,11,
Cc1ccc(C(=O)NCCN2CCNC2=O)cc1,-3,-1,-5,-16,-18,i,-10,-2,
COC(=O)C1=CN(Cc2ccc(OC)cc2)C=C(C(=O)OC)C1c1ccc(O)c(OC)c1,1,-2,0,-5,-22,i,1,-9,
COc1ccc(C(=O)CCc2ccccc2O)c(OC)c1,4,1,-4,-70,2,i,-5,-5,
Cc1cc(Br)c(NC(=O)CSc2n[nH]c(N)n2)c(Br)c1,1,2,.,6,1,.,.,3,
CC(C)OC(=O)CSc1nnc(-c2ccco2)n1N,-2,2,6,0,-7,i,9,-2,
Cc1cccc(NS(=O)(=O)c2cc(NC(=O)CC(=O)c3ccc([N+](=O)[O-])cc3)ccc2C)c1,.,.,-6,.,.,i,-5,.,
CSc1nnc(Nc2ccccc2C)s1,-2,-3,-6,-91,-9,i,1,6,
Cn1c(SCC(=O)O)nnc1-c1cccc(NC(=O)c2cccc3ccccc23)c1,1,5,-4,-2,.,i,7,-2,
CCOc1ccccc1C(=O)OCC(=O)Nc1cc(Cl)ccc1Oc1ccccc1,5,2,3,3,.,i,-22,-5,
CCN(CC)S(=O)(=O)c1cccc(C(=O)OCC(=O)NCCN2C(=O)CSC2=O)c1,-4,3,.,1,-14,.,.,.,
CN(C)CCCn1c(=O)n(C2CCCCC2)c(=O)c2c3c(sc21)CCCCC3,-20,-18,.,12,-14,i,.,16,
CC1CC(C)(C)NC(=S)N1CCC(=O)N1c2ccccc2CC1C (centres undefined),5,2,-10,11,-35,i,1,-33,
CN(C(=O)COC(=O)CNC(=O)c1sc2ccccc2c1Cl)C1CCS(=O)(=O)C1 (centres undefined),3,4,.,-8,.,.,.,-6,
COc1ccc(CN2C(=O)C(CC(=O)NC3CC3)CC(C(=O)N(C)C)=C2C)cc1 (centres undefined),0,5,.,-3,-10,.,.,.,
COc1ccc(S(=O)(=O)N2CCCCCC2)cc1C(=O)N(C)CC(=O)Nc1ccccc1Br,1,0,.,9,5,i,.,-7,
Cc1cc(C)n(-c2nc3ccccc3s2)n1,8,6,-4,-46,.,i,11,-6,
O=C(CCn1cccn1)Nc1ccc2c(c1)OCCO2,1,2,-4,-7,-23,i,-6,0,
Cc1cc(C(=O)Nc2cccc(C)c2C)c2ccccc2n1,-1,-2,-1,-85,2,i,14,-12,
Cc1cccc(NC(=S)NNC(=S)NCc2ccccc2)c1,-10,6,79,-72,-20,i,3,21,eIF4H inh retest=5;PABP FP inh retest=15
O=C(NC(=S)Nc1sc2c(c1C(=O)O)CCCC2)c1ccccc1,7,4,-4,-13,-7,.,-4,1,
CN1C(C(=O)NCc2cccc(Br)c2)CC2Cn3c(nc4cc(Cl)c(Cl)cc43)C21 (centres undefined),4,-3,-7,-2,-11,i,10,4,
CN(CCC1CCOCC1)C(=O)C1CCC(=O)N(CCc2ccc(Cl)cc2)C1 (centres undefined),2,-2,.,5,-7,i,.,14,
COc1ccc(C(=O)C(C)N(C(=O)c2ccc(Cl)cc2Cl)N2C(=O)C3C4C=CC(C4)C3C2=O)cc1 (centres undefined),4,-6,-1,123*,-1,i,-4,1,
COc1ccc([C@H]2CC(=O)C=C(c3ccc(CO)cc3)C2)cc1,3,-1,.,-29,2,.,.,-11,
COc1ccc(NC(=S)N(CCCN2CCCC2)Cc2cccs2)cc1,-2,3,12,-17,-14,i,37,-4,
Clc1ccccc1-c1ncnc2ccc(Br)cc12,1,0,2,6,.,i,-4,-7,
Cc1cc(O)c(C=O)c2c1C(=O)Oc1c(CO)c(O)c3c(c1O2)C(O)OC3=O (centres undefined),.,.,108*,.,4,.,85*,4,
CC(=O)N1CCOc2ccc(S(=O)(=O)NC[C@H]3O[C@@H](n4ccc(=O)[nH]c4=O)[C@H](O)[C@@H]3O)cc21,4,4,.,-9,8,.,.,.,
Cc1cc(SCC(=O)c2cccc([N+](=O)[O-])c2)nc(=O)[nH]1,1,3,38,.,-14,i,29,14,
COc1ccc(C(=O)N(Cc2ccccc2)c2cccc(C)c2)c(OC)c1OC,-4,0,0,6,0,i,-2,-9,
COc1ccc(C(=O)NC2CCCCCC2)cc1OC1CCN(C(C)=O)CC1,0,-3,-7,17,-5,i,-3,-5,
COc1cc(NC(=O)c2ccccc2)ccc1NC(=O)Cc1ccccc1,4,1,1,-9,-11,i,1,2,
CC(C)C(NC(=O)OC(C)(C)C)C(=O)NC(CCC(=O)OCc1ccccc1)C(N)=O (centres undefined),-9,-1,-1,4,.,i,5,-2,
Cc1ccc(-c2nn(C)c(=O)c3ccccc23)cc1CNC(=O)CSc1nc2ccccc2o1,2,2,-11,-78,-5,i,-6,-9,
O=C(CN(Cc1ccccc1)S(=O)(=O)c1ccccc1)N/N=C/c1ccc2c(c1)OCO2,3,-1,-5,.,-12,i,11,-5,
CCc1ncc(C(O)c2cccc(OC)c2OC)n1C (centres undefined),0,2,-1,.,-16,i,-5,-8,
O=C(NC1CCCCC1)Oc1cccc2ccccc12,-5,0,15,-9,.,i,0,-4,
O=[N+]([O-])c1ccccc1/C=C\C=N\N1CCN(c2ccccc2)CC1,2,-3,-7,8,-4,i,-2,-8,
O=C(Nc1ccccc1)c1ccccc1N=Cc1ccccc1O,10,9,11,-22,.,i,107,3,eIF4H inh retest=28;PABP FP inh retest=14
Oc1ccccc1/C=N/n1c(-c2cccs2)n[nH]c1=S,0,4,2,.,-6,i,1,1,
COc1ccccc1C1CCN(Cc2cccc(C(=O)N3CCC(O)CC3)c2)CC1,-1,-2,3,.,-9,i,5,-9,
Cc1noc(C)c1COC(=O)c1csc2c1CCC(C)C2 (centres undefined),7,-4,.,.,0,.,.,29,

# Remaining list, next part
SMILES,MT1-MMP act inh,MT1-MMP act inh RFP,eIF4H inh,HIV Env fusion,Yeast UUG start,Rce1 inh,PABP FP inh,CSC inhib,others
CC(CC(=O)Nc1nncs1)c1ccccc1 (centres undefined),-1,-3,-10,.,0,i,5,1,
Cc1ccc2c(c1)N(Cc1cccc(F)c1)C(=O)C(C)O2 (centres undefined),0,-4,85,11,7,i,-6,-6,eIF4H inh retest=-1;PABP FP inh retest=3
Oc1ccc(/C=N/NC(=S)Nc2cccnc2)c(O)c1,-7,-4,18,-8,.,i,29,74,
COC(=O)CN(C#N)c1nc(OC)nc(N(C)C)n1,.,.,-6,8,-11,.,-3,-11,
COc1ccc(S(=O)(=O)N2CCCCC2)cc1NC(=O)CN1CCN(C(C)=O)CC1,3,0,2,10,-6,i,-7,4,
COc1cc(/C=C/C(=O)OCC(=O)Nc2cccc(F)c2)ccc1O,-3,-4,.,38,-18,.,.,-3,
COc1ccc(NC(=O)CC2Nc3ccccc3NC2=O)c([N+](=O)[O-])c1 (centres undefined),9,4,8,-12,.,i,3,-5,
CC(CC(=O)O)Nc1ccccc1O (centres undefined),3,5,22,-4,.,i,1,2,

# Source: PubChem
